Beta apoptosis: beta cell apoptosis inhibition | INS-1E cytokine-induced death, ATP luminescence, 48 h; percent of positive-control rescue, neutral wells zero | protection from apoptosis, % (no concentration beside the values) | 0.8% of 300,000 active;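 active means all replicates at 75% or more, or half of them and the mean; inconclusive means half reach 75% but not the mean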;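 further: 0% = cytokine-treated negative control wells and 100% = positive control rescue; higher means more ATP so stronger rescue from cytokine killing; wells of about 40 µL received 100 nL stock; the first replicate is given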
Calb FLC: affects C. albicans growth with fluconazole. C. albicans CaCi-2 (fluconazole-resistant clinical isolate) + fluconazole, Alamar Blue growth, 48 h. growth inhibition, % (concentration not given with the values). 0.57% of 300,000 active. AID 1979;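 active means most replicates above 75%; inconclusive means exactly half above 75%; inactive means most below 75%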;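 further: all wells also contain fluconazole at 8 µg/ml as a sub-toxic cotreatment; 0% = median of DMSO wells and 100% = median of geldanamycin control wells; wells of about 8 µL received 7.5 nL stock; the first replicate is given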
B2AR ag: activates human beta-2 adrenergic receptor causing internalization. P07550. Am2.2-beta2AR cells, FAP receptor internalization, flow cytometry; reference of the scale not given here. response, % (no concentration beside the values). 0.43% of 340,000 active. AID 504454;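 active means response above a set limit, near 3 SD of response in nonfluorescent compounds, cut at about 42% in these data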;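 further: stock transfer was 100 nL into about 11 µL; a reference agonist was the positive control; negative values mostly stem from fluorescent compounds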
Bfl-1 A1 inh: inhibitors of the anti-apoptotic protein A1, read as caspase activation. MEF A1-2A-BIM cells, Caspase-Glo 3/7 luminescence, 3 h; percent of clofoctol response, vehicle zero. caspase activation, % (test concentration not listed). 0.066% of 330,000 active. AID 2462;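 active means over half of replicate activation scores above 10%, or exactly half above 10 with the replicate mean above 10; inconclusive means replicate mean below 10 yet half the replicates above 10; inactive means over half of replicates below 10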;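 further: wells of about 30 µL received 50 nL stock; many hits fall short of the cut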
T cruzi repl: blocks replication of Trypanosoma cruzi; 1.4% of 300,000 active; inhibition, % (concentration not given with the values); T. cruzi beta-gal in NIH3T3, luminescence, 90 h;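 active means mean inhibition across valid replicates above about 55%, limit read from the data; inconclusive means mean below that limit but half or more replicates reach it; inactive means mean below it, under half of replicates reach it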;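 further: signal also drops with host cell toxicity which is not excluded here; 0% = plate median of DMSO wells and 100% = zero luminescence signal; higher percent means less beta-gal luminescence so fewer parasites; stock transfer was 50 nL into about 50 µL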
RanGTP-Imp inh: disruptors of Ran-importin-beta complex formation – biochemical, FRET, CFP-Ran, YFP-importin-beta, homogeneous, primary screen | 1.1% of 300,000 active | cell-free CFP-Ran/YFP-importin-beta FRET ratio | inhibition, % (no concentration beside the values);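 active means most replicates above 15%; inconclusive means exactly half above 15%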;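 further: 0% = DMSO wells and 100% = Ran loaded with GDP instead of GTP; wells of about 40 µL received 100 nL stock; the first replicate is given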
UCH37 inh: human UCH37 deubiquitinating enzyme inhibition | 0.33% of 330,000 active | inhibition, % (test concentration not listed) | purified proteasome/UCH37, Ub-AMC cleavage fluorescence | Q9Y5K5;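 active means mean of two replicates above 20%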;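 further: 0% = compound-free wells with enzyme and 100% = wells lacking proteasome; stock transfer was 100 nL into about 20 µL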
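Material: human UCH37 enzyme supplied as purified proteasome complex. Measure: % inhibition of Ub-AMC cleavage fluorescence. Medium: pH 7.4 Tris-HCl (50 mM) with ovalbumin, ATP-MgCl2, DTT. Times: 30 min preincubation with enzyme, 25 min cleavage at room temperature. Detection: AMC fluorescence intensity at 355/460 nm.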
LANA-H2B inh: blocks KSHV LANA binding to histone H2A/H2B; Q9QR71; cell-free LANA-H2A/H2B peptide, fluorescence polarization; inhibition, % (test concentration not listed); 0.6% of 320,000 active; AID 2629; in the data active means inhibition mostly above about 10%, no sharp cut-off; inactive means mostly below about 6.7%;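 further: stock transfer was 7.5 nL into about 10 µL; 0% = median of vehicle wells and 100% = median of positive control wells; one replicate is shown; the record names a cut of 25% in any replicate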
Target sequence (Q9QR71 whole entry, looked up): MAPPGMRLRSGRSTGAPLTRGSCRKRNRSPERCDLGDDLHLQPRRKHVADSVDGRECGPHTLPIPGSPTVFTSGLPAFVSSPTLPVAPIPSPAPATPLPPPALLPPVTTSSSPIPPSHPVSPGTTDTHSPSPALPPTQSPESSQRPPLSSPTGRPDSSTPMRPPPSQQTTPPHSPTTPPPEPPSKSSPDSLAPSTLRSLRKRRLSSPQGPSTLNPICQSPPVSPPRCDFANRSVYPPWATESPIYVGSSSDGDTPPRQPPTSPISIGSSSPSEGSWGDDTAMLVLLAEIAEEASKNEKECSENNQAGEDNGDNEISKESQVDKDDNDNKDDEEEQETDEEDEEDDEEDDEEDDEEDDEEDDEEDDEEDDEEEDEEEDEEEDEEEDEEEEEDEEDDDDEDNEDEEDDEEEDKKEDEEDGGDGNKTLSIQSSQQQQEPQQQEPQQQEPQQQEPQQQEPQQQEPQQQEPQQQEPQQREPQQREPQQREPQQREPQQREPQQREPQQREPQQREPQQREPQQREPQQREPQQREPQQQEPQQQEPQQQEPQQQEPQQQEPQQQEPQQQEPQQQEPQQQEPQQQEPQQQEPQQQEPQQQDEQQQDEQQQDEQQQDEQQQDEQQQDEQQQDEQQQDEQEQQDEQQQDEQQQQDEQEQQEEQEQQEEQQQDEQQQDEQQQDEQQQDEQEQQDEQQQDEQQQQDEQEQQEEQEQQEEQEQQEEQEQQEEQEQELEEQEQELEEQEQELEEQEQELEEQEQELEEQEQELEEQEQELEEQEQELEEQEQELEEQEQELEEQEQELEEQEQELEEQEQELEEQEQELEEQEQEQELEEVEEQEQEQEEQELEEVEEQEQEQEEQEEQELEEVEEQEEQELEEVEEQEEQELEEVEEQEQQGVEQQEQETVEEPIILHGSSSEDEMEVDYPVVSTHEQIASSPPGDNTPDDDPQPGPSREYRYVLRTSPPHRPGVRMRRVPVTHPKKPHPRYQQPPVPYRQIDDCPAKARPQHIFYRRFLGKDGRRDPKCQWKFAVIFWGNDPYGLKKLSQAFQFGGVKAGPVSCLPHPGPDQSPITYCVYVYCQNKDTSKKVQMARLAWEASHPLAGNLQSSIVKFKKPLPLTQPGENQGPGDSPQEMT
An asterisk follows results filed as active; i = inactive; u = inconclusive; x = no result given.

SMILES	Beta apoptosis	Calb FLC	B2AR ag	Bfl-1 A1 inh	T cruzi repl	RanGTP-Imp inh	UCH37 inh	LANA-H2B inh
COc1ccccc1N(C(=O)c1snc(C(N)=O)c1N)C(C(=O)NCc1ccccc1)c1ccc(C)o1 (stereo not given)	x	5	8	x	19	2.9	-66	x
Cc1cccnc1CC(C)NC(=O)c1cc(COc2cncc(Cl)c2)on1 (stereo not given)	8	0	-9	0.8	-3	-3.8	3.5	11
CN(C(=O)c1ccc2c(c1)C(=O)N(CCC1=CCCCC1)C2=O)C1CCCCC1	-3	-6	0	0.2	13	2.6	4.5	2.1
O=C(OCCNc1ncc(C(F)(F)F)cc1Cl)c1ccc(S(=O)(=O)N2CCOCC2)cc1	2	15	7	-0.6	8	-2.4	-0.2	-1.1
Cc1ccc(-c2csc3nc(CN(C)Cc4ccccc4)[nH]c(=O)c23)cc1	7	u	5	-0.4	21	2.3	0.2	-1.1
O=C(Nc1ccc(C(=O)O)cc1)/C(=C\c1ccccc1)NC(=O)c1ccco1	4	-5	-9	1.6	-5	0.0	1.6	7.6
O=C(O)Cn1cnc2c(=S)nc[nH]c21	-5	-5	-1	0.5	-28	6.1	x	1.4
CCc1cc(C(=O)c2ccc(OC)cc2)c(NC(=O)CN2CCCC2)s1	2	1	-10	0.1	22	4.2	6.1	1.6
CC(=O)Nc1cccc(OCCCOc2ccc([N+](=O)[O-])cc2)c1	10	5	-7	1.5	21	1.5	3.7	-0.7
CCCc1cc(=O)oc2cc(C)cc(OCC(=O)Nc3ccccn3)c12	12	2	-14	0.5	10	2.2	-26	0.4
COc1ccccc1N1CCN(C(=O)CSc2nnc(C)n2C2CC2)CC1	-1	x	-3	0.8	x	x	3.0	-5.6
CCOC(=O)c1oc2ccccc2c1NC(=O)C(C)(C)C	-2	-8	14	u	0	1.4	-2.9	-4.1
O=C(Cc1ccccc1F)N1CCN(S(=O)(=O)c2ccc(Cl)cc2)CC1	-3	x	1	0.8	x	x	3.5	7.6
CC(=O)Nc1nnc(SCC(=O)NCc2ccc3c(c2)OCO3)s1	2	1	-4	-0.6	-12	-1.2	-0.2	-1.1
O=C(O)c1ccccc1C(=O)Nc1c(-c2ccccc2)nc2ccccn12	x	23	-3	0.1	-26	7.9	-4.3	0.0
CC(C)CN(Cc1c(O)ccc2c3c(c(=O)oc12)CCC3)CC(C)C	-14	2	-7	0.0	-15	1.3	i	9.2
Cc1cc(C)c2nc(Cl)c(CN(Cc3ccco3)C(=O)Nc3ccccc3C)cc2c1	11	2	42*	0.8	25	-2.5	3.9	-6.7
O=C(c1ccc(Br)o1)N1CCN(Cc2ccc3c(c2)OCO3)CC1	x	-38	6	-0.3	2	2.6	1.4	0.3
Cc1ccc(S(=O)(=O)N2CCN(C(=O)C3COc4ccccc4O3)CC2)cc1C (stereo not given)	-13	-2	2	0.2	23	5.9	2.5	-2.2
Cn1cnnc1SCc1cccc(Br)c1	-8	4	-4	1.1	-5	-5.9	0.2	-4.8

Only RanGTP-Imp inh (2 entries from above):
compound,RanGTP-Imp inh
O=C(OCCNc1ncc(C(F)(F)F)cc1Cl)c1ccc(S(=O)(=O)N2CCOCC2)cc1,-2.4
O=C(O)Cn1cnc2c(=S)nc[nH]c21,6.1

Further results follow.
SMILES	Beta apoptosis	Calb FLC	B2AR ag	Bfl-1 A1 inh	T cruzi repl	RanGTP-Imp inh	UCH37 inh	LANA-H2B inh
O=C(CNS(=O)(=O)c1ccccc1)N1CCc2ccccc2C1	-4	4	-2	0.7	-4	4.7	0.6	2.6
Cn1c(=O)c2c(nc(Sc3ncnn3CC(=O)NC(C)(C)C)n2C)n(C)c1=O	-3	5	3	0.0	-8	0.0	4.5	6.5
CC(=O)Nc1ccc(S(=O)(=O)Nc2cccc(-c3nc4ccccc4o3)c2)cc1	7	-2	-7	-2.1	2	0.3	-1.5	-2.3
CCOC(=O)c1c(NC(=O)CSc2nc3ccccc3o2)sc(C)c1C	1	-12	1	1.3	1	9.5	3.3	-2.1
Cc1cc2nc(-c3ccc[nH]c3=O)[nH]c2cc1C	78*	38	6	-10	2	1.4	i	4.6
O=C(Nc1ccc2c(c1)OCCO2)C1CC1c1ccccc1 (stereo not given)	4	-29	2	0.1	-3	0.3	-1.3	2.8
Cc1cccc(NC(=O)c2nc(-c3ccccc3)n(-c3ccccc3)n2)c1C	8	-2	3	0.4	18	-0.5	0.5	4.2
CC1(C)CC(=O)C(C(=O)/C=C/c2ccco2)C(=O)C1	-3	-2	4	-0.1	-6	3.6	14	4.2
Cc1cc(C)cc(NC(=O)C2CCN(S(=O)(=O)c3ccc4c(c3)NC(=O)C(C)S4)CC2)c1 (stereo not given)	5	14	-2	-1.3	31	3.7	3.9	-0.9
COc1ccccc1NCC(=O)NNC(C)C(=O)Nc1cccc(Cl)c1 (stereo not given)	-8	-3	-11	0.7	3	5.6	4.5	2.4
COc1ccc(/C=N\Nc2ccc([N+](=O)[O-])cc2)c(C(=O)O)c1OC	1	-11	3	-1.2	3	-4.9	x	7.5
CCN(Cc1cnn(C)c1)C(=O)c1cc(COc2cc(C)c(Cl)c(C)c2)on1	-5	6	2	1.8	9	7.8	4.5	-1.3
CS(=O)(=O)N1CCN(c2ccccc2NC(=O)CSc2ccc(Cl)cc2)CC1	-4	-3	0	0.1	11	4.5	-3.7	0.8
COc1ccccc1/C=C/C(=O)OCC(=O)NNC(=O)c1ccccc1	-8	-9	11	-0.2	0	5.3	-71	0.0
CCOc1cccc2sc(N(CCN(C)C)C(=O)c3ccc4c(c3)OCCO4)nc12	-16	0	9	0.0	3	-4.7	4.2	1.9
CCC(C)C(=O)Nc1nc(C)c(-c2csc(Nc3cc(Cl)ccc3OC)n2)s1 (stereo not given)	1	-4	12	0.1	3	6.7	-3.4	2.2
CC1CCCCN1S(=O)(=O)c1ccc2c(c1)CCN2C(=O)C1CC1 (stereo not given)	2	-15	-3	-1.1	-2	3.1	-0.6	0.5
CC(=O)c1cccc(NC(=O)/C(=C\c2cccnc2)NC(=O)c2ccc(C)cc2)c1	-4	2	0	0.8	-8	-16	x	1.3
Cc1nn2c(NCCCN(C)C)c3c(nc2c1-c1ccccc1)CCC3	-2	-15	-2	-0.3	69*	u	-2.7	-1.2
Nc1nnc(CSCc2ccc(F)cc2)s1	-4	10	-2	-0.4	-11	2.9	1.4	-11
O=C(NC(C(=O)N1CCCC1C(=O)O)=C1CCCCC1)c1ccccc1 (stereo not given)	-7	-14	9	-1.0	-1	7.7	5.4	0.6
Cc1cccc(C(=O)Nc2nnc(COc3ccccc3)s2)c1	-3	-3	4	0.8	6	2.8	-0.7	1.7
C[C@H](NC(=O)c1ccccc1Cl)C(=O)OCC(=O)NNC(=O)c1cccs1	-2	-3	-4	0.1	-4	u	1.1	x
CCOC(=O)C1=C(N)N2C(=O)C(C)SC2=C(C(=O)OCC)C1c1ccccc1 (stereo not given)	0	10	-4	0.1	2	-1.3	-0.9	-1.8
CCCCN(C(=O)c1cccc2c(=O)c(C)c(-c3ccccc3)oc12)c1ccccc1	x	-4	23	x	39	3.9	3.0	x
O=C(CSc1nnnn1C1CC1)N1CCN(Cc2ccccc2F)CC1	-13	x	-7	0.3	x	x	1.5	3.2
CC(=O)c1ccc(S(=O)(=O)N(C)CCCC(=O)N2CCN(c3ncccn3)CC2)cc1	-5	x	-2	1.2	x	x	-0.3	-2.5
O=C(COC(=O)COc1cccc(F)c1)Nc1nc2ccccc2s1	-2	x	5	0.2	x	x	0.2	3.4
Cc1ccc(NC(=O)C2CCCN(c3ncccn3)C2)cc1C (stereo not given)	4	6	-2	0.1	2	1.1	2.1	0.9
Cc1ccc(N2C(=O)CC(N3CCc4ccccc43)C2=O)cc1Cl (stereo not given)	-7	17	3	0.9	2	-13	0.1	2.2
O=C(Nc1cccc(S(=O)(=O)N2CCOCC2)c1)C1CCCN(C(=O)c2ccc(Cl)cc2)C1 (stereo not given)	0	26	-2	0.5	-1	3.0	-0.1	-3.4
NC(=O)c1oc2ccccc2c1NC(=O)CS(=O)(=O)c1ccccc1	-5	3	-2	0.0	-16	-0.2	0.8	-0.8
O=C(CC1NCCNC1=O)Nc1cccc([N+](=O)[O-])c1 (stereo not given)	0	-7	-9	-0.5	-1	-1.3	5.2	-0.4
COc1ccccc1OCCn1c(=O)n(C)c2ccccc21	2	2	-10	-0.6	-6	7.2	4.2	-4.2
COC(=O)c1ccc(Nc2ncnc3sccc23)cc1	1	2	3	-0.4	-6	u	-9.2	1.1
O=C(O)c1ccc2c(c1)C(=O)N(c1cccc(S(=O)(=O)Nc3cccc(C(F)(F)F)c3)c1)C2=O	-1	-14	-1	-2.2	-16	3.9	8.8	x
COc1ccc(Cn2c(=O)[nH]c3cc(C(=O)Nc4ccccc4C)ccc32)cc1	-2	-5	11	0.0	5	-0.5	5.7	1.1
Cc1ccc(NC(=O)NCc2cccnc2)cc1Cl	5	7	-2	0.3	42	0.6	4.1	-4.2
CC1(NC(=O)CSc2nnc(-c3c[nH]c4ccccc34)n2C2CC2)CCS(=O)(=O)C1 (stereo not given)	-5	x	0	-1.0	x	x	-3.1	0.7
CC(=O)Nc1ccc(S(=O)(=O)N2CCN(Cc3nc4sc(C)c(C)c4c(=O)[nH]3)CC2)cc1	-3	-9	0	0.7	5	-1.4	-3.0	2.3
Cc1ccc(S(=O)(=O)NCCc2cn3nc(C)c(C)nc3n2)cc1C	0	-3	1	0.0	-5	20*	x	-0.5
Cc1ccc(NC(=O)C2CCCCC2C(=O)O)cc1C (stereo not given)	1	-7	-1	1.0	x	u	0.8	9.0
Cc1ccc(S(=O)(=O)N(C)CCCC(=O)Nc2ccc(F)cc2)cc1	-1	0	4	0.1	6	4.2	5.5	0.5
NC(=O)CC(NC(=O)Cc1ccc(Cl)cc1)c1ccc(NCCc2ccccc2F)c([N+](=O)[O-])c1 (stereo not given)	2	2	-5	-0.8	5	0.7	48*	1.5
N#Cc1c2n(c3c(=O)n(Cc4ccc(Cl)cc4)cnc13)CCCCC2	-1	-1	-7	0.3	17	6.8	2.0	-2.7
COC(=O)C1=C(N)OC2=C(C(=O)CCC2)C1c1ccc2c(c1)OCO2 (stereo not given)	-1	2	2	0.9	-11	4.7	6.2	-3.0
CCCN1CCCc2cc(CN(CCCN3CCOCC3)C(=O)Nc3ccc(OCC)cc3)ccc21	2	u	17	-0.8	46	-5.8	2.6	4.0
COc1cc(C)c(NC(=S)Nc2ccc(C)c(Cl)c2)cc1OC	0	-3	2	0.2	9	4.5	6.6	-7.2
Cn1c(SCC(=O)N2CCCC2)nc2cccnc21	1	0	-6	-0.1	7	-4.2	4.6	-11
COC(=O)c1ccc(-c2ccc(C(c3c(C)[nH][nH]c3=O)c3c(C)[nH][nH]c3=O)o2)cc1	-3	1	26	-0.5	9	2.6	45*	2.4
O=C(Nc1ccc(Cc2nc3ccccc3s2)cc1)c1ccncc1	14	-5	36	0.1	16	-3.1	0.5	2.2
C=CCN1C(=O)C(Cc2ccc(F)cc2)S/C1=N/N=C/c1ccco1 (stereo not given)	-1	-3	4	-0.2	8	-1.7	x	-1.8

High-throughput results as filed in PubChem.
